MT1-MMP act inh – MT1-MMP (human) activation inhibition; P50281; HT1080 RFP-PRO-GFP cells, GFP/RFP ratio fluorescence, overnight; percent of plate control window, DMSO zero; GFP/RFP ratio change, % at 20 µM; hit rate 0.061% among 360,000;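 active = GFP/RFP ratio change of at least 30% with cell ATP level not reduced by more than half and red fluorescence within 50% of control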; also: strong numbers were not always called active
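Assay system: HT1080 RFP-PRO-GFP cells | Dosing: 20 µM single dose, 1% DMSO | Incubation: Cells overnight before dosing, compound overnight, 37 °C, 5% CO2 | Evaluation: GFP/RFP fluorescence ratio | Control set: DMSO-only wells and HT1080 RFP-L50D-GFP cell wells as references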
PABP FP inh – PABP-poly(A) binding inhibition | PABP-poly(A) RNA binding, fluorescence polarization | P11940 | inhibition, % at 35 µM | hit rate 1% among 290,000;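 active = 50% or more with normal probe brightness, or confirmed in later tests; about a fifth of its hits are not listed in these tables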;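 also: calls also rest on retests at 20 µM and on dose response follow-up; controls were probe without protein and protein plus probe with vehicle; some compounds called inactive have numbers as strong as hits; many hits fall short of the cut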
Target sequence (P11940 whole entry, looked up): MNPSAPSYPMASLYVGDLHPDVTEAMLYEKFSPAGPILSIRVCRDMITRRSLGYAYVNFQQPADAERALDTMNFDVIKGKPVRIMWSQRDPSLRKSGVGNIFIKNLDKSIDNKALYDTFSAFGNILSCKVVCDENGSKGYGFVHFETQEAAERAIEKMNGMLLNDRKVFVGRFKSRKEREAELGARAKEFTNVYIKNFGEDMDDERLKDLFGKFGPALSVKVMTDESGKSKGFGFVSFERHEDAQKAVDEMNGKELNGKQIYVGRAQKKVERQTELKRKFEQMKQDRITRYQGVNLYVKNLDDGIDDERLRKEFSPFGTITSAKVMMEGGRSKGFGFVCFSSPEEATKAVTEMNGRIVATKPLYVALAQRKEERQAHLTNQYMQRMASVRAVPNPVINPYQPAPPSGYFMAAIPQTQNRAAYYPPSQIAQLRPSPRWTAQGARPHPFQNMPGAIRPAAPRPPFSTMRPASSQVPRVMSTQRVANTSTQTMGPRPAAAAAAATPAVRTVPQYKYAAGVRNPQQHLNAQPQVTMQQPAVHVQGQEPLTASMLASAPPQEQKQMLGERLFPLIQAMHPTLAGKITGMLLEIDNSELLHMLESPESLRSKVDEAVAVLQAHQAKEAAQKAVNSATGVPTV
Rce1 inh – yeast Ras-converting enzyme inhibition. yeast membranes, quenched prenylated peptide cleavage fluorescence. hit rate 0.27% among 290,000. AID 2563. calls only;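 active = fall in fluorescence gain of 50% or more versus controls, with final raw signal at or below 3038400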;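 also: plate controls were neutral control wells for no effect and wells lacking membranes for full effect; tested at 10 µM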
Target sequence (Q03530 whole entry, looked up): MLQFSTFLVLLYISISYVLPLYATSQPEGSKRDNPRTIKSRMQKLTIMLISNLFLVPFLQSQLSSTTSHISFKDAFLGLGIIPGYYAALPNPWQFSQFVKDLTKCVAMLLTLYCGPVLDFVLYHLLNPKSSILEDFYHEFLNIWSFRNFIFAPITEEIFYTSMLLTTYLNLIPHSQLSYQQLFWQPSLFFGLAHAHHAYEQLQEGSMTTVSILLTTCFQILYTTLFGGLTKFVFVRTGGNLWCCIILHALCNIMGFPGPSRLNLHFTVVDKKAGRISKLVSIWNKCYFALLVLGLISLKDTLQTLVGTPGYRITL
CSC inhib – cancer stem cell inhibition; inhibition, % at 7.5 µM; hit rate 1.1% among 300,000; AID 2717; cancer stem cell-like cells viability, luminescence;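 active = mean at 75% or more and at least half the replicates too; tested in HMLE shEcad cells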;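 also: 0% = median of negative and 100% = median of positive control wells; the first replicate is given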
UUG fidelity – yeast start codon fidelity modulation. S. cerevisiae UUG-firefly luciferase reporter, luminescence/redox ratio. activity score, % at 18.7 µM. hit rate 0.13% among 350,000;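 active = replicate mean at a twofold rise or more, about +100% in these data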;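 also: firefly luciferase made from a UUG start codon reports start codon fidelity; reporter light over untreated wells divided by growth signal over untreated wells; some hits fall short of that in this replicate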
eIF4H FP inh – inhibitors of RNA binding by human eIF4H. Q15056. inhibition, % at 35 µM. hit rate 0.94% among 290,000. eIF4H fluorescence polarization binding assay;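 active = 50% or more with normal probe brightness, or confirmed in later tests; about a fifth of its hits are not listed in these tables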;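 also: calls also rest on retests at 20 µM and on dose response follow-up; 0% = protein and probe with vehicle and 100% = probe without protein; strong numbers were not always called active; many hits fall short of the cut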
HIV Env fusion – HIV envelope-mediated fusion inhibition. HeLa-JRFL Env/CEM21 cell fusion, luciferase. inhibition, % at 12.3 µM. hit rate 1.1% among 360,000. AID 651610;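 active = mean replicate inhibition score of at least 50 and every replicate individually at or above 50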;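 also: 0% = plate neutral controls and 100% = maraviroc near 300 nM; one replicate is shown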
MT1-MMP act inh RFP – also measured in MT1-MMP act inh; calls as there; RFP signal change, %; measured here: RFP expression control read;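 0 = vehicle wells; hits needed this value within 50% of zero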
The depositor's hits bear a star; i = inactive; . = not tested or not shown; & = joins results of further samples; [ ] = dose if it differs, or a comment. This is a subset, so the mix of outcomes need not match the whole.

smiles,MT1-MMP act inh,MT1-MMP act inh RFP,PABP FP inh,Rce1 inh,CSC inhib,UUG fidelity,eIF4H FP inh,HIV Env fusion
O=C(OCc1nnc(-c2ccccc2)o1)c1cc2ccccc2cc1O,0,6,1,i,-1,.,2,8
O=C(CSc1nc2ccccc2c(=O)n1-c1ccccc1)N1CCN(CCO)CC1,0,3,-8,i,-9,-5,-20,1
COc1ccc(Cn2nnnc2C(c2cc3cccc(C)c3[nH]c2=O)N2CCN(C)CC2)cc1 (stereo unspecified),-6,2,3,i,-16,.,0,1
CSc1nnc2ccc(-c3cccs3)nn12,-1,3,-15,i,-17,-20,-11,-39
CCN(CC)CCNc1nc(-c2ccccc2)c2c(c1C#N)CC(C)(C)OC2,-7,-5,-9,i,-7,-18,8,.
Cc1ccc(NC(=O)C2CCCN(S(=O)(=O)c3ccc4[nH]c(=O)ccc4c3)C2)c(C)c1 (stereo unspecified),0,1,0,i,.,-8,2,-18
CN1C(=O)/C(=C2\SC(=S)N(C(CCC(=O)O)C(=O)O)C2=O)c2ccccc21 (stereo unspecified),-14,-5,-1,i,4,1,1,-15
O=C(CSc1nc2ccccc2c(=O)n1-c1ccccc1)N/N=C/C=C/c1ccccc1[N+](=O)[O-],1,0,0,i,78*,.,0,-1
COCCNc1cnn(-c2ccccc2)c(=O)c1Cl,0,2,12,i,-5,-3,-2,-20
O=S(=O)(CC(CN1CCCCC1)N1CCCCC1)c1ccc2ccccc2c1 (stereo unspecified),-12,-14,-8,i,.,.,-4,11

Some entries already given, reduced to MT1-MMP act inh RFP and Rce1 inh.
mol,MT1-MMP act inh RFP,Rce1 inh
Cc1ccc(NC(=O)C2CCCN(S(=O)(=O)c3ccc4[nH]c(=O)ccc4c3)C2)c(C)c1 (stereo unspecified),1,i
CN1C(=O)/C(=C2\SC(=S)N(C(CCC(=O)O)C(=O)O)C2=O)c2ccccc21 (stereo unspecified),-5,i
O=C(CSc1nc2ccccc2c(=O)n1-c1ccccc1)N/N=C/C=C/c1ccccc1[N+](=O)[O-],0,i
COCCNc1cnn(-c2ccccc2)c(=O)c1Cl,2,i

The list continues.
smiles,MT1-MMP act inh,MT1-MMP act inh RFP,PABP FP inh,Rce1 inh,CSC inhib,UUG fidelity,eIF4H FP inh,HIV Env fusion
Cc1c(C(=O)O)nn(-c2ccccc2)c(=O)c1C#N,4,3,12,i,-7,-14,-4,-144
CSCC[C@H](NC(=O)OC(C)(C)C)c1nnc(SCC(=O)Nc2c(C)cccc2C)o1,-3,0,-1,.,5,-7,9,.
CC(C)CCNC(=O)COc1cccc2c1OC(C)(C)C2,-8,-3,10,i,.,.,3,35
COc1ccccc1S(=O)(=O)Cc1ccc(C(=O)NC2CCCCCC2)o1,-2,-3,-12,i,-2,.,2,5
COc1cc2c(cc1OC)C(Nn1cnnc1)=NC1(CCCC1)C2,7,-1,0,i,-17,-11,2,-3
CCOc1ccc(Cl)cc1S(=O)(=O)n1cnc2cc(C)c(C)cc21,0,-2,-3,i,13,-3,-7,5
COC(=O)Cn1c(O)c(N=NC(=O)OC)c2ccccc21,-1,4,-9,i,3,-6,-4,13
CCn1c(CNC(=O)Cc2ccc(OC)cc2)nnc1SCC(=O)c1ccc(Br)cc1,7,-5,10,i,-11,.,-9,.
NC(=O)CCN1CCC(c2nc3ccccc3s2)CC1,-3,-2,3,.,-3,-10,7,-8
O=C(Nc1nc(N2C(=O)c3ccccc3C2=O)n(-c2ccccc2)n1)c1ccc(F)cc1,8,5,-1,i,.,-12,13,.
COc1cc(NC(=O)c2ccc(CNc3c(N4CCCC4)c(=O)c3=O)cc2)cc(OC)c1OC,8,9,0,i,2,9,-5,2
Cc1ccc(C(=O)NC(C)CCc2ccccc2)cc1[N+](=O)[O-] (stereo unspecified),0,-4,9,i,-1,3,9,-24
CC(C)C[C@@]12C(=O)N(c3ccc(Br)cc3)C(=O)N1[C@H](c1ccc(Br)cc1)[C@@H]1C(=O)N(C(C)(C)C)C(=O)[C@@H]12,-11,-10,-1,i,9,-13,-7,80*
CC(=O)N1CCC(N(C(=O)Nc2ccc(F)cc2)C2CCCC2)CC1,-1,0,25,i,5,-18,33,18
CC(C)(C)c1cc(Br)ccc1OCC(=O)Nc1ncn[nH]1,1,0,3,i,2,-18,4,.
CCOc1ccc(NC(=O)Nc2ccc3c(c2)nc(C)n3C)cc1,8,6,-6,i,0,-23,-1,-21
COc1ccc(Nc2ncc3c(n2)CC(c2ccc(OC)cc2)CC3=O)cc1 (stereo unspecified),-1,-10,-4,i,.,-4,0,.
CC(Oc1ccc(F)cc1Br)c1nc2ccccc2c(=O)[nH]1 (stereo unspecified),-1,-2,-3,i,4,-19,8,-7
Cc1ccc(C)c(C(=O)COc2ccccc2[N+](=O)[O-])c1,1,7,-1,i,7,4,-6,38
COC(=O)c1ccc2nc(Nc3nc4ccc(F)cc4s3)sc2c1,-5,-3,-12,i,53,-34,0,57*

Retrieved by compound from above:
smiles,MT1-MMP act inh,MT1-MMP act inh RFP,PABP FP inh,Rce1 inh,CSC inhib,UUG fidelity,eIF4H FP inh,HIV Env fusion
COc1cc(NC(=O)c2ccc(CNc3c(N4CCCC4)c(=O)c3=O)cc2)cc(OC)c1OC,8,9,0,i,2,9,-5,2
COc1ccc(Nc2ncc3c(n2)CC(c2ccc(OC)cc2)CC3=O)cc1 (stereo unspecified),-1,-10,-4,i,.,-4,0,.
Cc1ccc(C(=O)NC(C)CCc2ccccc2)cc1[N+](=O)[O-] (stereo unspecified),0,-4,9,i,-1,3,9,-24
CC(=O)N1CCC(N(C(=O)Nc2ccc(F)cc2)C2CCCC2)CC1,-1,0,25,i,5,-18,33,18
Cc1ccc(C)c(C(=O)COc2ccccc2[N+](=O)[O-])c1,1,7,-1,i,7,4,-6,38
CC(Oc1ccc(F)cc1Br)c1nc2ccccc2c(=O)[nH]1 (stereo unspecified),-1,-2,-3,i,4,-19,8,-7

Remaining list, next part:
structure	MT1-MMP act inh	MT1-MMP act inh RFP	PABP FP inh	Rce1 inh	CSC inhib	UUG fidelity	eIF4H FP inh	HIV Env fusion
Cc1ccc(N2CCN(C3=NC(=O)/C(=C\c4cn[nH]c4-c4ccccc4)S3)CC2)cc1	2	-5	-7	i	-4	.	-7	46
COc1ccc(S(=O)(=O)N2CCCCC2c2cc(C(=O)Nc3ccc4c(c3)OCO4)no2)cc1 (stereo unspecified)	-2	-19	.	.	.	-2	.	17
CCCc1c(C(=O)N/N=C(\C)c2cc(C)sc2C)nnn1-c1nonc1N	2	2	.	.	.	2	.	-11
O=[N+]([O-])c1cccc(COc2ccc(CN3CCOCC3)cc2)c1	6	0	.	.	.	-30	.	-86
CC(C)C(c1nnnn1C1CCCC1)N1CCCc2ccccc21 (stereo unspecified)	0	-4	3	i	5	-5	0	11
CN1CCN(/N=C/c2ccc(N(c3ccccc3)c3ccccc3)cc2)CC1	-14	-7	-4	i	86*	1	-11	27
CCOC(=O)N1CCN(c2c(Nc3ccc4c(c3)OCCO4)c(=O)c2=O)CC1	2	3	5	i	-11	-18	-3	8
O=C(Nc1c2c(nn1-c1cccc(Cl)c1)CS(=O)(=O)C2)c1cccs1	4	0	4	i	5	-12	-11	2
CN(C)S(=O)(=O)N1CCC(Oc2ccc(C(=O)N3CCCCCC3)cc2)CC1	-9	-25	.	.	.	-2	.	18
Cc1noc(C)c1CSCC(=O)OCc1nnc(-c2ccc([N+](=O)[O-])cc2)o1	-3	-5	.	.	-8	-13	.	.
COc1ccc2c(c1)c(CC(=O)Nc1nnc(C3CC3)s1)c(C)n2C(=O)c1ccc(Cl)cc1	-2	7	-6	i	.	-5	7	11
CC1CCc2c(sc(NC(=O)Cn3cnc([N+](=O)[O-])n3)c2C(N)=O)C1 (stereo unspecified)	-6	-6	-9	i	4	-6	-3	-6
O=C(c1ccc(CS(=O)(=O)c2ccc(Br)cc2)o1)N1CCN(c2ncccn2)CC1	0	6	-3	i	-5	-13	-4	8
C[C@@H]1CCCCCCCCC(=O)OCCN[C@H](C)CCCCCCCCC(=O)OCCN[C@H](C)CCCCCCCCC(=O)OCCN1	-5	-1	.	.	-6	-15	.	.
CCC1Oc2ccc(C)cc2N(CC(=O)N(Cc2ccc3c(c2)OCO3)CC2CCCO2)C1=O (stereo unspecified)	-11	-14	13	i	-5	-4	5	-49
COc1cccc(CCN2CCC(CNS(=O)(=O)c3cc(-c4cc(C)no4)ccc3OC)CC2)c1	3	-17	-6	i	16	-5	8	10
COc1ccc(C(CNC(=O)Cn2c(=O)oc3ccccc32)N(C)C)cc1 (stereo unspecified)	-6	3	-2	i	-7	-4	-2	-257
CCO[C@H]1OC(C(=O)Nc2ccccc2)=C[C@@H](c2cn(C(C)=O)c3ccccc23)[C@@H]1CCCO	-1	0	-9	i	15	4&-11	-8	24[16.7 µM]
O=C(N1CCCCC1)N1CCN(C(=O)N2CCCCC2)CC1	2	2	-8	i	4	.	-2	10
COc1ccc(-c2cc(-c3nnc(COC(=O)c4ccncc4)o3)c3ccccc3n2)cc1OC	4	0	5	i	1	.	2	-6
CCCc1nc2c(sc3nc4c(cc32)COC(C)(C)C4)c(=O)n1CCN(C)C	-1	-3	0	i	1	.	-6	7
CSc1cccc(NC(=O)CNC(=O)c2ccc3c(c2)OCO3)c1	-2	1	.	i	-8	-1	.	-4
COC(=O)c1cccc(-n2nnnc2SCC(=O)Nc2nc3c(s2)CCCC3)c1	0	-1	13	i	10	14	-5	.
Cc1ccc(S(=O)(=O)N(C)CC(=O)NCc2ccncc2)cc1	1	3	-14	.	-6	-14	-8	-30
Cc1cc(C)n(C(=O)c2cc3ccccc3c(=O)o2)n1	5	6	-1	i	-9	-1	-1	.
COc1ccc(NC(=O)COc2ccc(CNCCCN3CCOCC3)cc2OC)cc1	11	-1	16	i	3	-17	-3	.
O=C(CN1C(=O)NC(c2ccccc2)(c2ccccc2)C1=O)Nc1cccnc1Cl	1	3	5	i	-4	.	4	-10
O=C(CSc1nnc(-c2cccnc2)o1)N1CCCCC1	-3	-1	2	i	8	-19	0	7
O=C(NCCNC(=O)c1cc(OCC(F)(F)F)ccc1OCC(F)(F)F)Nc1cccc(C(F)(F)F)c1	3	-10	-5	i	38	-9	4	84*
Cc1cccc(CN2CCC(CNC(=O)CSc3cc(=O)n(C)c4cc(Cl)ccc34)CC2)c1	1	2	-10	i	-14	.	-6	-25
Cc1ccc(OCC(=O)Nc2ccccc2C(=O)N2CCCCC2)cc1	-2	0	-4	i	-4	3	17	0

Source: PubChem BioAssay (several laboratories)
